Screening results as filed in PubChem.
PINK1 expr mod – changes PINK1 expression; PINK1 immunofluorescence, high-content cytometry, 24 h; Potency, µM (highest dose often 76.6 µM), inactives show top-dose activation (PINK1 increase), actives largely listed as activators; 410,000 compounds, 0.2% hits; AID 624263; active = well fitted activation curve with a large enough effect; inconclusive = small, poorly fitted or top-dose-only effect; inactive = flat fitted curve, though single readings scatter; cell line not stated here;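 also: potency is read from the fitted curve at half-maximal effect; % of control where 0% means no effect; nearly all actives have a fitted effect of over 65% in size; a mitochondrial uncoupler was the plate control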
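Decision-based qHTS: stable cells, 24 h exposure to five compound concentrations, CCCP as control. Fixed cells stained for PINK1 plus nuclear, mitochondrial and cell markers, cytometer read.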
Six1-Eya2 inh – Six1/Eya2 interaction inhibition; AlphaScreen GST-Six1/His-Eya2 binding, biochemical; active compounds read low; control for the full effect not named in the record; AID 651725; 360,000 compounds, 0.56% hits; activity change, % (test concentration not listed); in the data active = activity change below about -65%; inconclusive = about -30% to -65%; inactive = above about -30%; also: % is scaled to controls: 0 for no effect and ±100 for the full control effect
Target sequence (O00167 whole entry, looked up): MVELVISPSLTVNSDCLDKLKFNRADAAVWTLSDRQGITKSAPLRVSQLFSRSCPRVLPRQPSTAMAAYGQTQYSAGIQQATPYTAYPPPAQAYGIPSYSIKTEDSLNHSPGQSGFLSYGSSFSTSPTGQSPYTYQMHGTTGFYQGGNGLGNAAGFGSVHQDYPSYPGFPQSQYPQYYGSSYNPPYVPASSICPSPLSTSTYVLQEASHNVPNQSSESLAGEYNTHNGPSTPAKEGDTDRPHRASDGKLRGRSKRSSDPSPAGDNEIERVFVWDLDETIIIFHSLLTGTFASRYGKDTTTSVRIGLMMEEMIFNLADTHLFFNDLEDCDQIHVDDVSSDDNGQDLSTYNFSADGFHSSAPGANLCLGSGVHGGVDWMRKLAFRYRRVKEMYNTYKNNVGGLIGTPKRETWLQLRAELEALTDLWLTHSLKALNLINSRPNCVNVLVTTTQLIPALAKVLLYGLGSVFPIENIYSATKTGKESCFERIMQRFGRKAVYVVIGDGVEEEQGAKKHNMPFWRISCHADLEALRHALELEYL
Target sequence (Q15475 whole entry, looked up): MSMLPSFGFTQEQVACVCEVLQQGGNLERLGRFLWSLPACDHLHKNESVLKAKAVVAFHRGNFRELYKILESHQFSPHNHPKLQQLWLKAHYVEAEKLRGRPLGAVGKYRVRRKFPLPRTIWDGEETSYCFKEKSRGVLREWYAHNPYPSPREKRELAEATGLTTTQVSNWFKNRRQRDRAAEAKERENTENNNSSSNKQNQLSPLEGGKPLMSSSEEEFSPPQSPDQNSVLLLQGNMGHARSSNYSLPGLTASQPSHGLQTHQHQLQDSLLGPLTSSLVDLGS
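Homogeneous AlphaScreen proximity assay pairing GST-Six1 with His-tagged Eya2 (added as 5X mix: 250 nM and 500 nM) in 50 mM Tris pH 8.0, 300 mM NaCl, 1 mM TCEP. Glutathione donor and nickel acceptor beads; 1 h, 37 °C, dark.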
TRPML1 agonist – activates the human TRPML1 channel. TRPML1-expressing cells, Ca2+ dye fluorescence, FDSS; host cell line not named in the record; reference of the full effect not given here. activation, % (no concentration beside the values). 410,000 compounds, 0.12% hits; in the data active = activation above about 50%; inconclusive = about 30% to 50%; inactive = below about 30%; also: 0% is about no effect; the text of the record puts the active cut at 80%
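Tetracycline-induced TRPML1-DL cells are seeded and incubated overnight before loading with a no-wash Ca2+ dye and quencher. Agonist activity is taken from the 110 s fluorescence read following compound pin-transfer on an FDSS, before EC80 54-4 challenge.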
D2 ag – human D2 receptor agonism in beta-arrestin assay | DiscoveRx PathHunter D2 beta-arrestin, luminescence, 90 min; 100% = 57 uM dopamine signal | 360,000 compounds, 0.084% hits | activation, % (concentration not given with the values) | AID 624465 | P14416; in the data active = activation above about 40%; inconclusive = about 15% to 40%; inactive = below about 15%; also: the text of the record calls up to 30% inactive
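Agonist mode: compounds alone added to overnight-plated D2 PathHunter cells for 90 min at 37 C, with 57 uM final dopamine (EC100) defining full response. Beta-arrestin recruitment detected by chemiluminescent reagent, read after 1 h at ambient temperature.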
CtBP-E1A blk – blocks the CtBP interaction with E1A | 340,000 compounds, 0.49% hits | activity change, % (concentration not given with the values) | AID 651724 | AlphaScreen GST-E1A/His-CtBP binding, 1536-well; active compounds read low; control for the full effect not named in the record; in the data active means activity change below about -65%; inconclusive means about -30% to -65%; inactive means above about -30%; also: % is scaled to controls: 0 for no effect and ±100 for the full control effect
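In 5 uL wells, 23 nL compound meets equimolar GST-E1A and His-CtBP (5X stock 125 nM each) for 2 h, 37 °C. Beads (5X, 50 ug/mL) then 1 h, 37 °C, dark.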
D2 PAM – human D2 receptor positive allosteric modulation. DiscoveRx D2 beta-arrestin cells, luminescence, 90 min; 100% = 57 uM dopamine signal. P14416. 360,000 compounds, 0.23% hits. AID 624464. potentiation, % (concentration not given with the values); active = potentiation of 50% or more; inconclusive = 30% to 50%; inactive = 30% or less;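 also: tested on top of an EC20 dose of dopamine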
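PathHunter beta-arrestin assay in DiscoveRx D2 cells. Compounds were added with an EC20 of dopamine (50 nM final) for 90 min at 37 deg C. Luminescence was read 1 h after detection reagent, with 57 uM dopamine as the EC100 control.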
* marks the source's active call; other numbers are inactive results; ? = inconclusive; · = no result given; [ ] = remark or other dose.

SMILES	PINK1 expr mod	Six1-Eya2 inh	TRPML1 agonist	D2 ag	CtBP-E1A blk	D2 PAM
COc1ccc(CN2CCN(C(=O)c3ccc(F)cc3)CC2)c(OC)c1	-0.3%	0.3	0.2	-3.6	12.4	-1.7
N#Cc1nc(COc2ccc(Br)cc2)oc1NCCCn1ccnc1	-0.5%	-8.0	-0.4	-5.3	3.9	-12.3
O=C(CCc1nnc(Cc2ccc3c(c2)OCO3)o1)NC(c1ccccn1)C(F)(F)F (stereo not given)	-0.7%	-5.5	0.4	-1.2	15.4	-0.4
C=CCn1c(SCC(=O)/C(C#N)=C(\C)N)nnc1C1CCCCC1	-0.1%[38.3 µM]	5.8	-0.4	-1.7	5.3	-5.7
O=C(NCCc1cccnc1)C1CCC(=O)N(Cc2cccc(C(F)(F)F)c2)C1 (stereo not given)	-2.0%	1.2	1.0	-6.0	6.5	-14.2
COC(=O)C1C2CCC(C2)C1C(=O)OCC(=O)c1ccc(C)cc1 (stereo not given)	0.8%	5.5	0.0	-0.3	-2.2	-2.9
CCc1ccc(NC(=O)CC2NCCNC2=O)cc1 (stereo not given)	14.8%[38.3 µM]	-1.1	0.3	-1.7	5.5	-10.1
Cc1cccc(NC(=O)CCn2ccnc2C)c1	1.8%	-3.3	-0.5	-3.3	-7.3	-4.0
COc1cccc(CN(C)CC(=O)NCc2ccc(C)cc2)c1	0.7%	4.8	0.7	0.7	-15.9	0.8
Cc1cccc(NS(=O)(=O)c2cccc3cccnc23)n1	1.3%	?	-0.1	-2.2	?	-6.2
CC(=O)c1ccc(S(=O)(=O)N2CCC3(CC2)CC(=O)c2ccccc2O3)cc1	2.0%	2.4	-1.0	2.9	-22.1	-2.2
CC[C@@]1(C(=O)OC)N[C@H](CN(C)S(=O)(=O)c2ccc(-c3ccccc3)cc2)[C@@H]2C(=O)N(C)C(=O)[C@@H]21	-0.2%	4.5	3.2	-1.1	3.4	-1.8
Cc1ccc(S(=O)(=O)NC(=O)C2(C)CCN2C(=O)C2CC2)cc1 (stereo not given)	-0.1%	4.1	0.6	1.5	13.7	3.3
O=C(NCc1ccc(F)cc1)c1cc(-c2ccccn2)nc2ccc(S(=O)(=O)N3CCOCC3)cc12	10.9%	-3.0	-0.6	-0.2	2.2	-0.1
Cc1cccc(C)c1NC(=S)N(CCN(C)C)Cc1cccs1	2.5%	0.5	1.3	-0.3	3.6	-3.2
O=C(Nc1ccc2c(c1)OCO2)Oc1ccccc1	-4.1%[38.3 µM]	-5.4	0.5	-1.8	-1.8	1.2
CC(C)(C(=O)N1CCC1(C)C(=O)NS(=O)(=O)c1cccc(F)c1)c1ccccc1 (stereo not given)	0.7%	9.7	-0.4	2.3	9.7	-0.9
O=C1/C(=C/c2ccccc2)CCc2ccc(Cl)nc21	-6.9%	-4.1	0.6	-4.6	19.3	-3.6
Cc1[nH]c(=O)[nH]c(=O)c1S(=O)(=O)N1CCCC(C(=O)NCCc2ccc(Cl)cc2)C1 (stereo not given)	-0.4%	4.1	-0.7	-0.8	-1.1	-15.3
O=C(Cn1cncn1)c1ccccc1	0.1%	2.1	·	-0.4	4.8	-1.9
CCCCCCn1c(N(CC)CC)nc2c1c(=O)[nH]c(=O)n2C	0.1%	-3.8	-1.0	2.0	1.9	-0.6
Cc1ccc2c(c1)OC(=O)CC2c1ccccc1 (stereo not given)	-0.6%	16.2	1.0	-0.7	1.7	-5.0
O=C(CCCN1C(=O)/C(=C\c2cccs2)SC1=S)Nc1ccc(O)cc1	0.1%	0.8	1.5	2.6	1.4	-1.4
O=C(CSc1nnc(CNc2ccc(F)cc2)n1Cc1ccccc1)NCc1ccco1	-1.5%	-4.5	-0.4	-4.6	3.1	-6.8

Exported comma-delimited: two of the compounds above.
Molecule,PINK1 expr mod,Six1-Eya2 inh,TRPML1 agonist,D2 ag,CtBP-E1A blk,D2 PAM
Cc1[nH]c(=O)[nH]c(=O)c1S(=O)(=O)N1CCCC(C(=O)NCCc2ccc(Cl)cc2)C1 (stereo not given),-0.4%,4.1,-0.7,-0.8,-1.1,-15.3
O=C1/C(=C/c2ccccc2)CCc2ccc(Cl)nc21,-6.9%,-4.1,0.6,-4.6,19.3,-3.6

Additional structures follow:
SMILES	PINK1 expr mod	Six1-Eya2 inh	TRPML1 agonist	D2 ag	CtBP-E1A blk	D2 PAM
CC(C)Cc1nnc(NC(=O)Cc2ccccc2[N+](=O)[O-])s1	0.2%	1.8	2.5	-6.0	7.0	-2.2
N#Cc1cccc(CN2CCCN(Cc3ccc(F)cc3)S2(=O)=O)c1	3.3%	0.5	2.4	1.3	·	-2.7
CCSCCOC(=O)C1=C(C)NC(=O)NC1c1cccc(OC)c1OC (stereo not given)	·	2.2	0.5	-1.2	10.1	5.5
CCCCC[C@H](O)/C=C/[C@@H]1[C@@H](C/C=C\CCCC(=O)OC)[C@@H](O)C[C@H]1O	0.2%	-18.0	0.9	-4.0	12.4	-2.4
Nc1ccc2c(c1)sc1ccccc12	3.8%	-8.0	0.7	0.1	3.2	-16.5
CN/C(=C/[N+](=O)[O-])NCCSCc1ccc(CN(C)C)o1	0.0%	0.0	-0.6	-4.0	-0.2	-9.6
CCc1ccc(NC(=O)C(=O)NCCOc2ccccc2Cl)cc1	0.6%	9.5	-1.1	-2.6	11.3	4.3
O=C1CCC(c2ccccc2)(c2ccccc2)CC1	0.7%	28.2	1.8	-1.7	·	-29.8
C=CC[C@@H](CC(=O)OC(C)(C)C)C(=O)OC[C@H]1CCCN1C(=O)[C@@H](CC=C)CC(=O)N(CCO)Cc1ccccc1	-1.5%	-7.5	0.7	0.8	-21.4	-11.6
COCCNC(=O)C1CCCN(C(=O)c2cc(C(C)(C)C)nn2C)CC1 (stereo not given)	0.4%	-0.1	-0.4	2.4	4.3	-1.0
CCc1nc2c(OCCc3cccc(OC)c3)cccn2c1N(C)C(=O)c1cccs1	0.6%	-4.7	-0.7	-4.9	-7.5	-12.8
Cc1c(NC(=O)C(C)OC(=O)/C=C/c2ccc3c(c2)OCO3)c(=O)n(-c2ccccc2)n1C (stereo not given)	2.8%	-7.9	-1.6	-4.9	-22.2	-4.6
O=C(c1ccc(O)cc1)c1ccc(Cl)cc1	5.5%	5.4	-0.6	-1.3	5.2	-7.6
Cc1ccc(NC(=O)C2CCC(CNC(=O)[C@@H]3Cc4ccccc4CN3)CC2)c(C)c1 (stereo not given in full)	1.0%	5.6	0.4	-0.8	-17.6	-17.4
CCc1cc(C(=O)N2CCCC(C(=O)c3ccc(Oc4ccccc4)cc3)C2)n(C)n1 (stereo not given)	2.6%	2.8	2.3	2.2	3.5	-4.2
O=C(NNC(=O)c1cccs1)Nc1cccc(Cl)c1	1.4%	-13.1	1.9	-1.4	6.8	6.0
CCC/C(=N\NC(=O)CCC(=O)NCc1ccccc1)c1ccccc1	5.1%	-1.4	0.6	0.1	-10.5	-8.7
COc1ccc(CCNC(=O)CCC(=O)n2ncc3ccc(Cl)cc32)cc1OC	1.0%	0.7	-0.1	-4.9	0.7	-4.6
Cn1cc(C(=O)C(=O)NC2CCCCC2)c2ccccc21	4.1%	-6.1	0.0	-0.9	0.3	-6.8
CCn1c(=NC(=O)CS(=O)(=O)c2ccc(F)cc2)sc2cccc(OC)c21	1.6%	-5.7	2.6	1.3	-0.5	7.0
CC(OC(=O)c1ccc(NS(=O)(=O)c2ccc3[nH]c(=O)[nH]c3c2)cc1)C(=O)Nc1ccc(Cl)cc1 (stereo not given)	0.4%	-23.5	1.2	1.2	-20.2	-6.1
Cc1ccnc(NS(=O)(=O)c2ccc(NC(=O)C3C4C=CC(C4)C3C(=O)O)cc2)n1 (stereo not given)	-1.8%	-8.5	1.6	-0.4	11.0	-7.5
O=C(CN1C(=O)C2CC=CCC2C1=O)NCc1ccc2c(c1)OCO2 (stereo not given)	-0.9%	10.2	-0.3	-2.3	-0.9	1.8
COc1cccc(CNc2nc3cc(C(C)=C(C)C)sc3c(=O)n2C)c1	3.6%	-9.6	-1.0	-7.3	1.7	-12.1

4 entries out of the list, sorted by formula weight, lowest first.
SMILES	PINK1 expr mod	Six1-Eya2 inh	TRPML1 agonist	D2 ag	CtBP-E1A blk	D2 PAM
O=C(c1ccc(O)cc1)c1ccc(Cl)cc1	5.5%	5.4	-0.6	-1.3	5.2	-7.6
O=C(NNC(=O)c1cccs1)Nc1cccc(Cl)c1	1.4%	-13.1	1.9	-1.4	6.8	6.0
O=C(CN1C(=O)C2CC=CCC2C1=O)NCc1ccc2c(c1)OCO2 (stereo not given)	-0.9%	10.2	-0.3	-2.3	-0.9	1.8
CCC/C(=N\NC(=O)CCC(=O)NCc1ccccc1)c1ccccc1	5.1%	-1.4	0.6	0.1	-10.5	-8.7

Next part
SMILES	PINK1 expr mod	Six1-Eya2 inh	TRPML1 agonist	D2 ag	CtBP-E1A blk	D2 PAM
COc1cccc(Nc2nnc(SCC(=O)Nc3sccc3C(N)=O)s2)c1	3.4%	-19.0	2.2	-2.9	·	-14.8
Cc1ccc(OCC(=O)NNC(=O)c2cc(C)[nH]n2)cc1	0.0%	0.8	0.2	1.1	3.1	-3.0
c1ccc(NC2=NCCN2CC2CCC2)cc1	-0.3%	1.7	0.0	-1.4	4.5	-7.6
CC1(C)CC(=O)C(C2NCCc3ccccc32)=C(O)C1 (stereo not given)	1.2%	6.2	0.3	1.9	5.6	6.0
COc1cc(NC(=S)NCC2CCCO2)c(OC)cc1Cl (stereo not given)	0.8%	1.2	0.1	-5.8	·	-15.9
CCc1ccc(S(=O)(=O)NCc2cccnc2)cc1	6.2%	8.8	-0.1	-3.1	12.4	0.0
COc1cccc2c(=O)c3cccc(N)c3[nH]c12	-1.1%	?	-0.2	5.3	?	-12.0
COC(CNS(=O)(=O)c1cc2c3c(c1)CCN3C(=O)CC2)OC	-0.2%	1.4	-0.4	-3.6	4.7	3.4
CCN1CCN(C(=O)c2ccc(C(F)(F)F)cc2)CC1	1.3%	5.2	0.8	-1.4	13.9	-18.0
Cc1ccc(CCNC(=O)C2CCN(S(=O)(=O)c3cccc4cccnc34)CC2)cc1	0.5%	-0.2	-0.2	1.2	1.4	-16.6
O=S(=O)(NCC1(N2CCOCC2)CCCCC1)c1ccc(F)c(F)c1F	1.7%	10.0	-0.1	-4.4	-5.0	-7.8
CCOc1ccc(NC(=O)CN(C)CC(=O)Nc2ccc(Br)cc2F)cc1OCC	3.6%	-12.6	2.2	0.2	-15.5	-3.4
CC[C@]12c3[nH]c4cc(-c5ccco5)ccc4c3CCN1C(=O)[C@@H](CC(=O)NCCC1=CCCCC1)C[C@@H]2C(=O)N1CCN(C(=O)c2ccco2)CC1	1.8%	-0.5	1.6	-1.0	7.2	0.7
COc1ccccc1CNC(=O)C1CCN(S(=O)(=O)c2cccc3nonc23)CC1	3.2%	22.4	0.6	2.0	0.5	-1.8
COC(=O)c1cc(CNC(=O)c2cccc(Cl)c2)ccc1OC	-2.3%	24.2	1.2	9.2	0.0	4.7
CN(C(=O)c1cccc(NC(=O)Cc2cccc(NC(=O)C3CCCN(C(=O)C4CCCC4)C3)c2)c1)C1CCC1 (stereo not given)	0.6%	21.0	2.9	2.3	0.0	15.3
COc1ccc(S(=O)(=O)NCC(=O)N(CC(=O)NCC2CCCO2)c2c(C)cccc2C)cc1 (stereo not given)	-0.2%	2.9	0.1	-0.7	0.5	2.2
